Screening data from PubChem.
PINK1 modulator – changes PINK1 expression | AID 624263 | PINK1 immunofluorescence, high-content cytometry, 24 h | Potency, µM (titrated, usually from 76.6 µM), for inactives: at the top dose activation (PINK1 increase), most hits filed as activators | 0.2% of 410,000 active; active = well fitted activation curve with a large enough effect; inconclusive = small, poorly fitted or top-dose-only effect; inactive = flat fitted curve, though single readings scatter; cell line not stated here;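 note: potency is the fitted concentration of half-maximal effect; % of control where 0% means no effect; nearly all actives have a fitted effect of over 65% in size; a mitochondrial uncoupler was the plate control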
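Stable cell line treated 24 h with compounds at 5 concentrations (CCCP controls), then fixed and immunostained for PINK1 plus nuclear and cell stains; PINK1 immunofluorescence quantified by laser-scanning microplate cytometry.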
D2 PAM – potentiates the human D2 dopamine receptor allosterically. 0.23% of 360,000 active. DiscoveRx D2 beta-arrestin cells, luminescence, 90 min; 100% = 57 uM dopamine signal. P14416. potentiation, % (concentration not given with the values). AID 624464; active = potentiation of 50% or more; inconclusive = 30% to 50%; inactive = 30% or less;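 note: compound concentration not given in the record; tested on top of an EC20 dose of dopamine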
Target sequence (P14416 whole entry, looked up): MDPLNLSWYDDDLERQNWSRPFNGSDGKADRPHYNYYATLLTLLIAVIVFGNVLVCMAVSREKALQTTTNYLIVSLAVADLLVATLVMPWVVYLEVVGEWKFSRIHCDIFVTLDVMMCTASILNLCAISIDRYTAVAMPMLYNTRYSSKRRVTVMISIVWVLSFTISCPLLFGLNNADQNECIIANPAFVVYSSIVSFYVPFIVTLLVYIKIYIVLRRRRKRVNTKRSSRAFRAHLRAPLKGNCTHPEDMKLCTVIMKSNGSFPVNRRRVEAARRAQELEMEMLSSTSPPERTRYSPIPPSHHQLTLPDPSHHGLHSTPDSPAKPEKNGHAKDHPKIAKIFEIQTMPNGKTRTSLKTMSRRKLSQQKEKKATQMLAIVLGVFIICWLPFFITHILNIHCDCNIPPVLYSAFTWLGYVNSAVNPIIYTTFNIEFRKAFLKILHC
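PathHunter beta-arrestin assay in DiscoveRx D2 cells. Compounds were added with an EC20 of dopamine (50 nM final) for 90 min at 37 deg C. Luminescence was read 1 h after detection reagent, with 57 uM dopamine as the EC100 control.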
Six1-Eya2 blk – blocks human Six1 binding to Eya2; activity change, % (concentration not given with the values); 0.56% of 360,000 active; AlphaScreen GST-Six1/His-Eya2 binding, biochemical; stronger effect = lower value; control for the full effect not named in the record; Q15475+O00167; in the data active = activity change below about -65%; inconclusive = about -30% to -65%; inactive = above about -30%; note: % is set by controls: 0 for no effect and ±100 for the full control effect
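Compounds are tested against tagged Six1 and Eya2 proteins bridged by glutathione donor and nickel acceptor beads; after a one-hour incubation at 37 °C without light, AlphaScreen emission is recorded.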
D2 agonist – activates the human D2 dopamine receptor; DiscoveRx PathHunter D2 beta-arrestin, luminescence, 90 min; 100% = 57 uM dopamine signal; activation, % (test concentration not listed); 0.084% of 360,000 active; in the data active = activation above about 40%; inconclusive = about 15% to 40%; inactive = below about 15%; note: compound concentration not given in the record; the text of the record calls up to 30% inactive
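Agonist mode: compounds alone added to overnight-plated D2 PathHunter cells for 90 min at 37 C, with 57 uM final dopamine (EC100) defining full response. Beta-arrestin recruitment detected by chemiluminescent reagent, read after 1 h at ambient temperature.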
CtBP-E1A blk – CtBP/E1A binding inhibition; AlphaScreen GST-E1A/His-CtBP binding, 1536-well; stronger effect = lower value; control for the full effect not named in the record; activity change, % (concentration not given with the values); 0.49% of 340,000 active; in the data active means activity change below about -65%; inconclusive means about -30% to -65%; inactive means above about -30%; note: % is set by controls: 0 for no effect and ±100 for the full control effect
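Homogeneous bead-based format: GST-tagged E1A captured on glutathione donor beads, His-tagged CtBP on nickel acceptor beads; compounds precede bead addition by 2 h at 37 °C.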
TRPML1 agonist – human mucolipin-1 channel agonism | Q9GZU1 | TRPML1-expressing cells, Ca2+ dye fluorescence, FDSS; host cell line not named in the record; reference of the full effect not given here | activation, % (no concentration beside the values) | 0.12% of 410,000 active | AID 624414; in the data active = activation above about 50%; inconclusive = about 30% to 50%; inactive = below about 30%; note: 0% is about no effect; the text of the record puts the active cut at 80%
Target sequence (Q9GZU1 whole entry, looked up): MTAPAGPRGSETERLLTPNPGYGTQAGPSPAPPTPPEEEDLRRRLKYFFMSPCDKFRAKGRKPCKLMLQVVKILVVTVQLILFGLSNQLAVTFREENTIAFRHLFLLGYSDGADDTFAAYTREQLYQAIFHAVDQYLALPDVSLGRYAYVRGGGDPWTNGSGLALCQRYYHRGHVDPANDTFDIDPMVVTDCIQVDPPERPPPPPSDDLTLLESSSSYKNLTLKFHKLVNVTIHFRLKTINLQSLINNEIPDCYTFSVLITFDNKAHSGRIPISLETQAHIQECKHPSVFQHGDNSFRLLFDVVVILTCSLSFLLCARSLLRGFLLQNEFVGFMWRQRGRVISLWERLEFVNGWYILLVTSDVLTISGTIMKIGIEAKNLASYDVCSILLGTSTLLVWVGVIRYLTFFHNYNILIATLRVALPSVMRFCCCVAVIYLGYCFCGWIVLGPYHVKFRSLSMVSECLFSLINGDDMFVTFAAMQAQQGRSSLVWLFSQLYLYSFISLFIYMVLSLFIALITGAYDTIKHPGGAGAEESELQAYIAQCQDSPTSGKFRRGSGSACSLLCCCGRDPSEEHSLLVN
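Tet-induced TRPML1-DL cells, 1,500 per well, cultured overnight, were loaded with a no-wash Ca2+ dye for 45–90 min. Calcium fluorescence was recorded on the FDSS for 110 s after compound addition, before the EC80 agonist (4 uM 54-4) was added.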
* marks the source's active call; other numbers are inactive results; ? = inconclusive; nt = no result given; [ ] = another dose, or the depositor's remark. The order is random; about 1.3% have a hit in one of these screens.

Key to letters: A = PINK1 modulator; B = D2 PAM; C = Six1-Eya2 blk; D = D2 agonist; E = CtBP-E1A blk; F = TRPML1 agonist
> C=CCc1c(C)nc(N)[nH]c1=O
  A = 2.4%[38.3 µM]	B = 5	C = 3	D = -1.9	E = 11	F = 0.2

> Cc1ccc(-n2nc(C)c3c(C)onc3c2=O)cc1
  A = -0.6%	B = -19	C = 2	D = -4.1	E = nt	F = -0.8

> O=S(=O)(NCC(c1ccc2c(c1)OCO2)N1CCOCC1)c1ccc(Cl)cc1 (stereo not drawn)
  A = -3.1%	B = 10	C = 14	D = -4.6	E = -1	F = -0.5

> COc1ccc(-c2cc(C3CCN(CC(O)C(F)(F)F)CC3)[nH]n2)cc1 (stereo not drawn)
  A = 0.2%	B = -3	C = -2	D = 8.0	E = nt	F = -0.3

> COc1ccc(OC)c(NC(=O)c2cccc(NC(=O)c3ccco3)c2)c1
  A = 1.9%	B = 8	C = -20	D = 4.8	E = -6	F = -1.1

> O=C(CN1CCN(Cc2ccccc2)CC1)Nc1nc2ccccc2s1
  A = -0.4%	B = -30	C = -3	D = -6.8	E = -4	F = -0.4

> O=C(CCCN1C(=O)/C(=C/c2ccc3c(c2)OCO3)SC1=S)Nc1cccc(C(=O)O)c1
  A = -0.3%	B = -6	C = -12	D = -1.2	E = -11	F = 1.3

> CS(=O)(=O)N(CC(=O)N1CCCCCC1)c1ccc(Br)cc1
  A = 5.9%[38.3 µM]	B = -3	C = -1	D = -3.3	E = 1	F = -0.6

> Cc1ccc(-c2nn(C)c(=O)c3ccccc23)cc1S(=O)(=O)N1CCOCC1
  A = 11%[38.3 µM]	B = -8	C = 1	D = 0.8	E = 0	F = 0.6

> Cc1coc(=N)n1CC(=O)c1ccc(Cl)cc1
  A = 1.6%	B = -11	C = -1	D = -2.3	E = 0	F = -0.7

> COC(=O)CN1C(=S)N(c2ccc(OC)cc2)C(=O)/C1=C/c1cccs1
  A = 10%	B = -16	C = 1	D = -1.5	E = 5	F = -0.1

> Cc1ccc(-c2cn(CCN)c(-c3ccncc3)n2)cc1
  A = -1.3%	B = -15	C = 1	D = -3.6	E = -1	F = 0.0

> Cc1sc2nc(C)n(/N=C/c3ccc(O)cc3O)c(=O)c2c1C
  A = 0.2%	B = 2	C = -4	D = -1.7	E = nt	F = 1.9

> O=C(OCCN1CCCCC1)c1ccc(Cl)cc1
  A = -0.3%	B = -27	C = -3	D = -3.0	E = -1	F = 0.3

> Cc1ccc(S(=O)(=O)N2CCN(C(=O)COC(=O)c3ccccn3)CC2)c(C)c1
  A = 0.2%	B = 4	C = -10	D = -0.2	E = 11	F = -0.3

Of the compounds above, these have an aryl methoxy group:
Key to letters: A = PINK1 modulator; B = D2 PAM; C = Six1-Eya2 blk; D = D2 agonist; E = CtBP-E1A blk; F = TRPML1 agonist
> COc1ccc(-c2cc(C3CCN(CC(O)C(F)(F)F)CC3)[nH]n2)cc1 (stereo not drawn)
  A = 0.2%	B = -3	C = -2	D = 8.0	E = nt	F = -0.3

> COc1ccc(OC)c(NC(=O)c2cccc(NC(=O)c3ccco3)c2)c1
  A = 1.9%	B = 8	C = -20	D = 4.8	E = -6	F = -1.1

> COC(=O)CN1C(=S)N(c2ccc(OC)cc2)C(=O)/C1=C/c1cccs1
  A = 10%	B = -16	C = 1	D = -1.5	E = 5	F = -0.1

Later entries:
Key to letters: A = PINK1 modulator; B = D2 PAM; C = Six1-Eya2 blk; D = D2 agonist; E = CtBP-E1A blk; F = TRPML1 agonist
> CC(C)NC(=O)/C(C#N)=C/c1ccc(N(C)C)o1
  A = 19%	B = -8	C = -1	D = -9.1	E = 6	F = 12

> O=C(O)CCn1cc(/C=C2/NC(=S)N(c3ccccc3)C2=O)c(-c2ccccc2)n1
  A = 0.1%	B = -16	C = -3	D = -4.7	E = -4	F = -0.5

> COc1ccc(C(=O)Nn2cnc3ccccc3c2=O)c(OC)c1
  A = -1.4%	B = -2	C = 1	D = 0.6	E = 9	F = 2.0

> S=C1NC(c2ccccc2)=NCN1c1ccc(Br)cc1
  A = -0.3%[38.3 µM]	B = -3	C = -2	D = -0.8	E = -3	F = -0.4

> CN1CCN(c2nc3c(c(=O)[nH]c(=O)n3C)n2Cc2cccc(Br)c2)CC1
  A = -0.3%	B = -4	C = -1	D = -3.9	E = 12	F = -0.1

> COc1ccc(C(=O)Nc2cc(C(C)=O)c(/C=C/N(C)C)oc2=O)cc1
  A = -0.2%	B = -30	C = -11	D = -4.5	E = -12	F = 9.1

> O=C(NCC(=O)N(Cc1ccccc1)C(C(=O)NC1CCCC1)c1ccco1)c1ccco1 (stereo not drawn)
  A = -0.1%	B = -11	C = 0	D = 0.6	E = 7	F = -0.4

> O=C(CSc1nnc(Cn2nnc3ccccc32)o1)N(Cc1ccc(F)cc1)c1ccccc1
  A = nt	B = 14	C = -4	D = 3.4	E = 6	F = 2.8

> COc1ccc(-c2cc(-c3ccccc3)nc(=O)[nH]2)cc1
  A = 1.4%	B = -7	C = 10	D = -3.5	E = -11	F = nt

> O=C(NCCc1ccccc1)N1c2ccccc2Sc2ccccc21
  A = -0.1%	B = 21	C = 5	D = -1.0	E = 7	F = 1.9

> O=C(Cc1cn2ccsc2n1)OCc1nc2ccccc2s1
  A = -0.6%	B = -35	C = ?	D = -2.0	E = ?	F = -0.3

> O=C1CCC(=O)N1Cc1c(Cl)cccc1Cl
  A = 0.5%	B = 1	C = 5	D = -1.7	E = 2	F = -0.2

> Cc1ccc(S(=O)(=O)N2CCN(CCOc3ccccc3)CC2)cc1
  A = -1.3%	B = -16	C = -1	D = 7.8	E = 1	F = -0.4

> CCOc1ccc(S(=O)(=O)N2CCOCC2)cc1NC(=O)C1CSC2(C)CCC(=O)N12 (stereo not drawn)
  A = 1.2%	B = -2	C = 1	D = -2.0	E = 1	F = 0.2

> O=C(CS(=O)(=O)c1ccccc1)Nc1ccccn1
  A = 0.1%	B = -8	C = -1	D = 0.1	E = nt	F = -0.1

> Cc1cccc(C)c1C(=NCCCN(C)C)c1ccccc1
  A = 0.5%	B = -30	C = 5	D = -6.8	E = 0	F = 0.9

> C=CCNC(=S)N(Cc1ccccc1)Cc1ccccc1
  A = 0.0%	B = 1	C = 7	D = 2.3	E = 24	F = 1.1

> O=C(Nc1ccccn1)C1(c2cccs2)CCOCC1
  A = -0.3%	B = -3	C = 15	D = -0.4	E = 16	F = 0.2

> COc1ccc2c(=O)c(-c3ccccc3)coc2c1
  A = -0.5%	B = -4	C = 3	D = -0.1	E = -1	F = 0.0

> COc1ccc(CC(=O)Nc2ccc3c(c2)CCC3)cc1S(=O)(=O)N1CCOCC1
  A = 0.9%	B = -4	C = -1	D = -1.6	E = -1	F = -1.0

> CC/C(=N\NC(=O)c1nnn(-c2nonc2N)c1-c1cccc(OC)c1)c1ccc(C)cc1
  A = -0.9%	B = -8	C = -1	D = 2.2	E = 0	F = 2.0

> O=C(C(=O)c1ccc(O)c(O)c1)c1ccc(O)c(O)c1
  A = -2.2%	B = -20	C = 4	D = -0.8	E = 9	F = 0.4

> CC(=O)O[C@H]1CC(=O)OC(C)(C)C2CC(=O)[C@]3(C)C(CC[C@@](C)([C@@H](O[C@@H]4O[C@H](CO)[C@@H](O)[C@H](O)[C@H]4O)c4ccoc4)[C@@]34O[C@@H]4C(=O)O)[C@]21C (stereo partly drawn)
  A = 1.4%	B = -4	C = 4	D = -3.6	E = 9	F = -0.2

> Cc1ccc(NC(=O)C2C3CCCC2C3c2ccccc2)cc1C (stereo not drawn)
  A = 5.9%	B = -12	C = 13	D = -4.0	E = 3	F = 2.4

> COc1ccc(Cn2c(=O)[nH]c3cc(C(=O)NC4CCCC4)ccc3c2=O)cc1
  A = 1.8%	B = -2	C = 4	D = -3.6	E = 3	F = nt

> COc1ccc(S(=O)(=O)NCCN2CCOCC2)cc1[N+](=O)[O-]
  A = -2.4%	B = -8	C = 9	D = -3.0	E = 2	F = 0.1

> CCCc1cc(=O)[nH]c(SCC(=O)Nc2cccc(S(=O)(=O)N3CCCCC3)c2)n1
  A = 2.0%	B = 5	C = 1	D = 1.8	E = 20	F = 1.9

> Cc1ccc(-c2nnn(CC(=O)N3CCC(C)CC3)n2)o1
  A = -1.0%	B = 6	C = 5	D = -1.6	E = 4	F = -0.3

> Cc1cc2ccccc2nc1-c1ccccc1F
  A = 14%	B = -20	C = 10	D = -0.6	E = -1	F = 1.0

> CCOC(=O)c1c(C)[nH]c(C)c1C(=O)CSc1nncs1
  A = 0.3%	B = -5	C = -2	D = 0.2	E = nt	F = -0.7

Continued; the last 2 above are carried over.
Key to letters: A = PINK1 modulator; B = D2 PAM; C = Six1-Eya2 blk; D = D2 agonist; E = CtBP-E1A blk; F = TRPML1 agonist
> Cc1cc2ccccc2nc1-c1ccccc1F
  A = 14%	B = -20	C = 10	D = -0.6	E = -1	F = 1.0

> CCOC(=O)c1c(C)[nH]c(C)c1C(=O)CSc1nncs1
  A = 0.3%	B = -5	C = -2	D = 0.2	E = nt	F = -0.7

> O=C(CCn1c(=O)oc2ccccc21)N1CCN(C(c2ccccc2)c2ccccc2)CC1
  A = -0.9%	B = -14	C = -7	D = -2.6	E = -4	F = 3.9

> Nc1[nH]c(C(=O)c2ccccc2)c(-c2c(F)cccc2F)c1C(=O)c1ccc(Cl)c(Cl)c1
  A = 6.1%	B = nt	C = -6	D = nt	E = -17	F = -0.3

> CC(C)C(=O)NC(=S)Nc1ccc(S(=O)(=O)NC2CCCCC2)cc1
  A = -1.8%	B = 8	C = 1	D = 3.3	E = 1	F = -0.4

> CC(C)C[C@H](NC(=O)OC(C)(C)C)C(=O)N/N=C/c1ccc2nccnc2c1
  A = -0.2%[38.3 µM]	B = -10	C = -5	D = 0.7	E = -15	F = 0.0

> Cc1ccccc1-c1nc(SCc2cccnc2)c2c(=O)n(C)c(=O)n(C)c2n1
  A = 5.2%	B = -15	C = -11	D = -0.9	E = 0	F = -0.9

> C=CCc1cc(C=O)cc(OC)c1OCc1c(Cl)cccc1Cl
  A = -3.3%[38.3 µM]	B = -19	C = 18	D = 1.5	E = 28	F = 1.8

> CCn1c(SCC(=O)Nc2sc3c(c2C#N)CCCC3)nnc1-c1ccco1
  A = 2.3%	B = -10	C = -2	D = -2.7	E = -7	F = 2.3

> O=C(COc1ccc(Cl)cc1Cl)NCCCN1CCOCC1
  A = -1.2%[38.3 µM]	B = -12	C = -3	D = 0.7	E = 18	F = 4.2

> Cc1cc(C)c(C)c(S(=O)(=O)N2CCC(C(=O)OCC(=O)N3c4ccccc4NC(=O)C3(C)C)CC2)c1C
  A = 4.2%	B = -7	C = -7	D = 1.1	E = -2	F = 1.5

> O=S(=O)([N-]c1nc2ccccc2nc1-[n+]1ccc(Cc2ccccc2)cc1)c1ccc(Br)s1
  A = -1.4%	B = ?	C = -10	D = ?	E = 0	F = -0.2

> O[C@@H](CNC[C@H](O)c1ccccc1)c1ccccc1
  A = 2.8%	B = -3	C = 2	D = 0.4	E = 2	F = 2.6

> COc1ccccc1NC(=O)CC1S/C(=N/N=C2\CCCc3ccccc32)NC1=O (stereo not drawn)
  A = 3.0%	B = -6	C = -4	D = 1.6	E = 4	F = 0.0

> COc1cccc(NC(=O)C2C3C=CC4(O3)C2C(=O)N(CCCN2CCC(C)CC2)C4C(=O)NC2CCCCC2)c1 (stereo not drawn)
  A = 0.1%	B = -13	C = 0	D = -5.7	E = 0	F = -1.1

> O=C(COC(=O)C1(c2cccc(F)c2)CCCC1)NCc1ccc2c(c1)OCO2
  A = 0.5%	B = -15	C = 1	D = 1.9	E = 13	F = 0.1
